# CFTR F508del – total CFTR protein upregulators, primary screen, cell-based, HeLa F508del-CFTR, immunofluorescence, viability (AID 1224863). Cystic fibrosis transmembrane conductance regulator (Homo sapiens). HeLa F508del-CFTR, immunofluorescence total CFTR, 24 h; by the record results were divided by relative cell number; some inactives read as strong as hits. calls, or highest fold increase where a dose series was run. actives 0.1% (n = 10,000); in the data nearly all actives have a first-pass fold increase above 1.5; a few of its hits are not listed in these tables;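 also: total CFTR protein by anti-CFTR immunofluorescence in fixed cells; first pass at 25 µM or 10 µg/mL by library and series up to twice that; 1 = untreated cells; first-pass hits also needed half or more of the cells alive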
# CFTR F508del fold 25 µM – recorded beside CFTR F508del, whose call it bears; fold increase; measured here: primary screen single dose 25 uM; library dosed in µM
# CFTR F508del fold 10 ug/mL – recorded beside CFTR F508del, whose call it bears; fold increase; measured here: primary screen 10 ug/mL
# CFTR F508del viability 25 µM – also measured in CFTR F508del; calls as there; viability, %; measured here: primary viability 25 uM; library dosed in µM;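 0% = killed and 100% = untreated cells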
# CFTR F508del viability 10 ug/mL – second read-out of CFTR F508del, no call of its own (marks repeat the call); viability, %; measured here: primary viability 10 ug/mL;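 0% = killed and 100% = untreated cells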
# Numbers without * were called inactive; i = inactive; nt = no result given; & = joins results of further samples. Not all compounds are listed (hit frequency here may not be typical).
1	O=c1c2ccccc2nc(SCC2CC2(Cl)Cl)n1-c1ccc(F)cc1F (configuration not stated)
2	CCOP(=S)(OCC)Oc1nc(Cl)c(Cl)cc1Cl
3	CC[N+]1(C)CCCC(OC(=O)C(O)(c2ccccc2)c2ccccc2)C1 (configuration not stated)
4	O=[N+]([O-])c1ccc(NC2CCCCCC2)c2ccncc12
5	C#CCOc1ccccc1CNCCc1ccc(OC)cc1
6	Fc1ccc2c(C3=CCNCC3)c[nH]c2c1
7	CC1=C2CCC3C(CC[C@]4(C)C(=O)CCC34)[C@@]2(C)CCC1=O (some centres not stated)
8	C#C[C@]1(O)C=C[C@H]2[C@@H]3CCC4=CC(=O)CC[C@@H]4[C@H]3CC[C@@]21CC

entry no.	1	2	3	4	5	6	7	8
CFTR F508del	i	i	i	i	i	i	i	i
CFTR F508del fold 25 µM	nt	0.99	1.07	nt	nt	nt	1.13	1
CFTR F508del fold 10 ug/mL	0.93	nt	nt	0.99	1.04	0.9	nt	nt
CFTR F508del viability 25 µM	nt	92.0	84.0	nt	nt	nt	87.0	87.0
CFTR F508del viability 10 ug/mL	82.0	nt	nt	82.0	84.0	84.0	nt	nt

9	O=c1n(CN2CCCC3CCCCC32)nc2ccccn12 (configuration not stated)
10	CC(C)n1c(/C=C/[C@@H](O)C[C@@H](O)CC(=O)O)c(-c2ccc(F)cc2)c2ccccc21
11	O=c1[nH]c2ccccc2n1CCCN1CCC(n2c(=O)[nH]c3cc(Cl)ccc32)CC1
12	S=C=NCc1ccccc1
13	C[C@@H]1[C@H](O)[C@@H](C)/C=C/C=C/CC/C=C/C=C/C=C/C=C/[C@H](OC2O[C@@H](C)[C@H](O)[C@@H](N)[C@H]2O)C[C@@H]2OC(O)(C[C@@H](O)[C@H](O)CC[C@@H](O)C[C@@H](O)C[C@@H](O)CC(=O)O[C@H]1C)C[C@H](O)[C@H]2C(=O)O (some centres not stated)
14	C=CCNC1CCCC1
15	CC(C)(C)CC(C)(C)NCC(O)c1ccccc1 (configuration not stated)
16	CNCC(O)c1ccc(O)cc1 (configuration not stated)

entry no.	9	10	11	12	13	14	15	16
CFTR F508del	i	4.2&3.22	i	i	i	i	i	i
CFTR F508del fold 25 µM	nt	2.05&1.67	0.99&1.12&0.9	1.39	0.94	nt	nt	1.02
CFTR F508del fold 10 ug/mL	1	nt	nt	nt	nt	0.95	0.93	nt
CFTR F508del viability 25 µM	nt	95.0&82.0	85.0&92.0&86.0	88.0	87.0	nt	nt	96.0
CFTR F508del viability 10 ug/mL	96.0	nt	nt	nt	nt	85.0	102.0	nt

# Limited to CFTR F508del fold 25 µM and CFTR F508del fold 10 ug/mL (3 entries from above):
no. | canonical_smiles | CFTR F508del fold 25 µM | CFTR F508del fold 10 ug/mL
15 | CC(C)(C)CC(C)(C)NCC(O)c1ccccc1 (configuration not stated) | nt | 0.93
13 | C[C@@H]1[C@H](O)[C@@H](C)/C=C/C=C/CC/C=C/C=C/C=C/C=C/[C@H](OC2O[C@@H](C)[C@H](O)[C@@H](N)[C@H]2O)C[C@@H]2OC(O)(C[C@@H](O)[C@H](O)CC[C@@H](O)C[C@@H](O)C[C@@H](O)CC(=O)O[C@H]1C)C[C@H](O)[C@H]2C(=O)O (some centres not stated) | 0.94 | nt
14 | C=CCNC1CCCC1 | nt | 0.95

# Gathered by group: the compounds so far containing a COOH group (2)
10	CC(C)n1c(/C=C/[C@@H](O)C[C@@H](O)CC(=O)O)c(-c2ccc(F)cc2)c2ccccc21
13	C[C@@H]1[C@H](O)[C@@H](C)/C=C/C=C/CC/C=C/C=C/C=C/C=C/[C@H](OC2O[C@@H](C)[C@H](O)[C@@H](N)[C@H]2O)C[C@@H]2OC(O)(C[C@@H](O)[C@H](O)CC[C@@H](O)C[C@@H](O)C[C@@H](O)CC(=O)O[C@H]1C)C[C@H](O)[C@H]2C(=O)O (some centres not stated)

entry no.	10	13
CFTR F508del	4.2&3.22	i
CFTR F508del fold 25 µM	2.05&1.67	0.94
CFTR F508del fold 10 ug/mL	nt	nt
CFTR F508del viability 25 µM	95.0&82.0	87.0
CFTR F508del viability 10 ug/mL	nt	nt

# Going on with the list:
17	Nc1ccc([As](=O)(O)O)cc1
18	C=C[C@H]1CN2CC[C@H]1C[C@@H]2[C@@H](OC(=O)OCC)c1ccnc2ccc(OC)cc12
19	CCCCCCCCC(=O)NCc1ccc(O)c(OC)c1
20	CN1CCC2(CC1)NC(=O)N(CN1CC=C(c3ccccc3)CC1)C2=O
21	ClC1C(Cl)C(Cl)C(Cl)C(Cl)C1Cl (configuration not stated)
22	O=[N+]([O-])O[C@H]1CO[C@H]2[C@@H]1OC[C@H]2O[N+](=O)[O-]
23	NCC(O)c1ccc(F)cc1 (configuration not stated)
24	CC(CCc1ccccc1)NC(C)C(O)c1ccc(O)cc1 (configuration not stated)

entry no.	17	18	19	20	21	22	23	24
CFTR F508del	i	i	i	i	i	i	i	i
CFTR F508del fold 25 µM	1.02	1.03	0.93	nt	1.08	1.03	nt	1.14&1.04
CFTR F508del fold 10 ug/mL	nt	nt	nt	1.01	nt	nt	0.69	nt
CFTR F508del viability 25 µM	111.0	99.0	96.0	nt	87.0	84.0	nt	103.0&102.0
CFTR F508del viability 10 ug/mL	nt	nt	nt	98.0	nt	nt	13.0	nt

# The list goes on (two carried over from the part before).
23	NCC(O)c1ccc(F)cc1 (configuration not stated)
24	CC(CCc1ccccc1)NC(C)C(O)c1ccc(O)cc1 (configuration not stated)
25	CC1[C@H](C)OC(=O)CC(O)CC(O)CC(O)CCC(O)C(O)C[C@]2(O)CC(O)C(C(=O)O)C(CC(OC3O[C@H](C)[C@@H](O)[C@H](N)[C@@H]3O)/C=C/C=C/C=C/C=C/CC/C=C/C=C/[C@H](C)[C@H]1O)O2 (some centres not stated)
26	Oc1ccc2c3c1O[C@H]1c4oc5ccccc5c4C[C@@]4(O)[C@@H](C2)N(CC2CC2)CC[C@]314
27	NC1(c2noc(C(F)(F)F)n2)CCCCCC1
28	CCC1(C2=NCCN2)Cc2ccccc2O1 (configuration not stated)
29	O=c1c2cc(Cl)ccc2[nH]c(=S)n1-c1ccc(F)cc1F
30	CCC1(c2ccc(N)cc2)CCC(=O)NC1=O (configuration not stated)
31	COC[C@@H](NC(C)=O)C(=O)NCc1ccccc1
32	C#CC(C)(O)CC (configuration not stated)

entry no.	23	24	25	26	27	28	29	30	31	32
CFTR F508del	i	i	i	i	i	i	i	i	i	i
CFTR F508del fold 25 µM	nt	1.14&1.04	1.05	0.99	nt	1.1	nt	1.18&1.07	0.96	1.09
CFTR F508del fold 10 ug/mL	0.69	nt	nt	nt	0.92	nt	0.92	nt	nt	nt
CFTR F508del viability 25 µM	nt	103.0&102.0	95.0	83.0	nt	90.0	nt	84.0&93.0	83.0	107.0
CFTR F508del viability 10 ug/mL	13.0	nt	nt	nt	88.0	nt	91.0	nt	nt	nt

33	O=C1CCO1
34	CCOC(=O)c1cncn1C(C)c1ccccc1 (configuration not stated)
35	O=c1c2ccccc2[se]n1-c1ccccc1
36	CC[C@@H](CO)NC(=O)[C@@H]1C=C2c3cccc4[nH]cc(c34)C[C@H]2N(C)C1
37	CC(N)Cc1ccc(O)cc1 (configuration not stated)
38	O=C(NC(=O)c1c(F)cccc1F)Nc1cc(Cl)c(OC(F)(F)C(F)C(F)(F)F)cc1Cl (configuration not stated)
39	COC(=O)NC(=S)Nc1ccccc1NC(=S)NC(=O)OC
40	C=CC[C@]1(O)CCC2C3CCC4=CC(=O)CCC4=C3C=C[C@@]21C (some centres not stated)

entry no.	33	34	35	36	37	38	39	40
CFTR F508del	i	i	i	i	i	i	i	i
CFTR F508del fold 25 µM	0.89	1.02	1.02	0.97	0.94	0.9	1	0.97
CFTR F508del fold 10 ug/mL	nt	nt	nt	nt	nt	nt	nt	nt
CFTR F508del viability 25 µM	76.0	86.0	103.0	100.0	104.0	87.0	102.0	84.0
CFTR F508del viability 10 ug/mL	nt	nt	nt	nt	nt	nt	nt	nt

# Arranged by molar mass (low to high): 3 of the compounds above.
33	O=C1CCO1
37	CC(N)Cc1ccc(O)cc1 (configuration not stated)
39	COC(=O)NC(=S)Nc1ccccc1NC(=S)NC(=O)OC

entry no.	33	37	39
CFTR F508del	i	i	i
CFTR F508del fold 25 µM	0.89	0.94	1
CFTR F508del fold 10 ug/mL	nt	nt	nt
CFTR F508del viability 25 µM	76.0	104.0	102.0
CFTR F508del viability 10 ug/mL	nt	nt	nt

# (continued)
41	CC12Cc3conc3CC1CCC1C2CCC2(C)C1CCC2(C)O (configuration not stated)
42	O=c1n(Cl)c(=O)n(Cl)c(=O)n1Cl
43	C#C[C@@H]1CC2C3CCC4=C[C@@H](OC(C)=O)CCC4C3CC[C@]2(C)[C@H]1OC(C)=O (some centres not stated)
44	CN1C(=O)CCS(=O)(=O)C1c1ccc(Cl)cc1 (configuration not stated)
45	C[C@]12CCC(=O)C(O)=C1CC[C@@H]1[C@@H]2CC[C@]2(C)C(=O)CC[C@@H]12
46	C[C@@H]1C[C@@H]([C@H](O)CC2CC(=O)NC(=O)C2)C(=O)[C@@H](C)C1
47	COc1ccc(C(=O)N2CCCC2=O)cc1
48	CN1CCN(c2ccc(N)nc2)CC1
49	C[C@]12Cc3cn[nH]c3C[C@@H]1CC[C@@H]1[C@@H]2CC[C@@]2(C)[C@H]1CC[C@]2(C)O
50	O=C1CCCN1CC#CCN1CCCC1
51	C[N+]12CCC(CC1)C(OC(=O)C(O)(c1ccccc1)c1ccccc1)C2 (configuration not stated)

entry no.	41	42	43	44	45	46	47	48	49	50	51
CFTR F508del	i	i	i	i	i	i	i	i	i	i	i
CFTR F508del fold 25 µM	nt	1	0.96	1	1.12	0.85	0.87&1.03	nt	1.01&1.08	1.02	0.96
CFTR F508del fold 10 ug/mL	0.88	nt	nt	nt	nt	nt	nt	1.08	nt	nt	nt
CFTR F508del viability 25 µM	nt	90.0	91.0	108.0	91.0	55.0	80.0&108.0	nt	97.0&116.0	89.0	109.0
CFTR F508del viability 10 ug/mL	87.0	nt	nt	nt	nt	nt	nt	99.0	nt	nt	nt

# Screens as filed in PubChem.
